High-throughput results: PubChem, National Center for Advancing Translational Sciences (NCATS)
PINK1 expr mod: A Quantitative High throughput Screen to Identify Chemical Modulators of PINK1 Expression | PINK1 immunofluorescence, high-content cytometry, 24 h | Potency, µM (titrated, usually from 76.6 µM), for inactives: top-dose activation (PINK1 increase), most hits filed as activators | 410,000 compounds, 0.2% hits; active = well fitted activation curve with a large enough effect; inconclusive = small, poorly fitted or top-dose-only effect; inactive = flat fitted curve, though single readings scatter; cell line not stated here;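 also: potency is read from the fitted curve at half-maximal effect; % of control where 0% means no effect; nearly all actives have a fitted effect of over 65% in size; a mitochondrial uncoupler was the plate control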
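Readout is PINK1 immunofluorescence, quantified alongside mitochondrial, cell and nuclear markers by laser-scanning microplate cytometry. Cells from a stable line were exposed to compound titrations (5 concentrations) for 24 hours, with CCCP controls.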
Sfp inh: qHTS Assay for Inhibitors of Bacillus subtilis Sfp phosphopantetheinyl transferase (PPTase); 4'-phosphopantetheinyl transferase ffp (Bacillus subtilis), Q9F4F7; Biochemical Sfp PPTase activity, qHTS; Potency, µM, inactives show max response, negative = inhibition, usual class: inhibitors; 310,000 compounds, 3.5% hits; active = well fitted inhibition curve with a large enough effect; inconclusive = small, poorly fitted or top-dose-only effect, or another doubt; inactive = no such curve, though single readings can be large or run the other way;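 also: the enzyme is Sfp with the accession as filed and its product quenches rhodamine fluorescence; potency is read from the fitted curve at half-maximal effect; 0% = enzyme reaction without inhibitor and -100% = no enzyme wells; top concentration of the series not given in the record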
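Fluorescence-quenching assay: 15 nM Sfp-PPTase preincubated 15 min at room temperature with compound, then 5 uM rhodamine-CoA and 12.5 uM BHQ-2-labelled YbbR peptide added. Fluorescence (ex 525/em 598 nm) read at start and after 30 min; difference gives rate.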
Menin-MLL FL inh: qHTS Assay for Inhibitors Targeting the Menin-MLL Interaction in MLL Related Leukemias: Competition With Fluorescein Labeled MLL-derived Peptide. FP activity change, % at 61.4 µM. 290,000 tested, under 10 active. Fluorescence polarization, fluorescein-MLL peptide displacement from menin; inconclusive = falling polarisation curve, or a change in total fluorescence; inactive = total fluorescence flat and polarisation flat or rising; no compound was filed as active; the % refers to the polarisation; negative = inhibition;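 also: % of control where 0% means no effect; inhibitors lower the polarisation; unlabelled MLL peptide was the positive control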
TRPV1 potentiator: HTS Assay for Compounds that Act as Potentiators of the Vanilloid Receptor 1 | potentiation, % at 8.33 µM | TRPV1-expressing cells, Fluo-8 calcium influx, capsaicin EC20 potentiation; host cell line not named in the record; control for the full effect not named in the record | 320,000 compounds, 0.02% hits | Transient receptor potential cation channel subfamily V member 1 (Homo sapiens), Q8NER1; active means potentiation above 80%; inconclusive means 30% to 80%; inactive means below 30%; also: 0% is about no effect
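Cells expressing TRPV1 were dye-loaded with Fluo-8 and read kinetically: 10 s baseline, 3 min after compound (agonist portion), then 2 min after EC20 capsaicin (allosteric enhancer portion). Calcium-bound dye fluorescence at 480/520 nm.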
ClpP mod: qHTS Assay for Activators of ClpP. ATP-dependent Clp protease proteolytic subunit (Bacillus subtilis (strain 168)), P80244. purified B. subtilis ClpP, FRET peptide cleavage, 20 min. Potency, µM (doses to about 57.5 µM), inactives show top-dose activity change, negative = active. 340,000 compounds, 1.9% hits; active = well fitted falling curve with a large enough effect; inconclusive = small, poorly fitted or top-dose-only effect; inactive = no such curve, though single readings can be large or run the other way; also: potency is read from the fitted curve at half-maximal effect; the source files actives as falling curves though it sought activators and does not explain the sign; nearly all actives have a fitted effect of over 65% in size; many hits overshoot -100%
Target sequence (P80244 whole entry, looked up): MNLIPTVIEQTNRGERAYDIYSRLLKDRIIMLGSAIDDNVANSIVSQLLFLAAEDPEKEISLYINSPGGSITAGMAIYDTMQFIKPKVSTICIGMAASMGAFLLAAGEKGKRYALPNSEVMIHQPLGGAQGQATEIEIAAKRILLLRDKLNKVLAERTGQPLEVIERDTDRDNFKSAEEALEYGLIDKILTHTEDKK
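FRET quenching reversal measured ClpP activation: 10 microg/mL B. subtilis ClpP at pH 8 with the FRET-FV decapeptide, read at 430 nm after 320 nm excitation. The 20-min minus 0-min signal was scaled between DMSO/no-enzyme wells and ADEP (5.8 microM final).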
TRPML1 ag: qHTS for Agonists of the Human Mucolipin Transient Receptor Potential 1 (TRPML1) | Mucolipin-1 (Homo sapiens), Q9GZU1 | TRPML1-expressing cells, Ca2+ dye fluorescence, FDSS; host cell line not named in the record; reference of the full effect not given here | activation, % (no concentration beside the values) | 410,000 compounds, 0.12% hits; in the data active = activation above about 50%; inconclusive = about 30% to 50%; inactive = below about 30%; also: 0% is about no effect; the text of the record puts the active cut at 80%
Target sequence (Q9GZU1 whole entry, looked up): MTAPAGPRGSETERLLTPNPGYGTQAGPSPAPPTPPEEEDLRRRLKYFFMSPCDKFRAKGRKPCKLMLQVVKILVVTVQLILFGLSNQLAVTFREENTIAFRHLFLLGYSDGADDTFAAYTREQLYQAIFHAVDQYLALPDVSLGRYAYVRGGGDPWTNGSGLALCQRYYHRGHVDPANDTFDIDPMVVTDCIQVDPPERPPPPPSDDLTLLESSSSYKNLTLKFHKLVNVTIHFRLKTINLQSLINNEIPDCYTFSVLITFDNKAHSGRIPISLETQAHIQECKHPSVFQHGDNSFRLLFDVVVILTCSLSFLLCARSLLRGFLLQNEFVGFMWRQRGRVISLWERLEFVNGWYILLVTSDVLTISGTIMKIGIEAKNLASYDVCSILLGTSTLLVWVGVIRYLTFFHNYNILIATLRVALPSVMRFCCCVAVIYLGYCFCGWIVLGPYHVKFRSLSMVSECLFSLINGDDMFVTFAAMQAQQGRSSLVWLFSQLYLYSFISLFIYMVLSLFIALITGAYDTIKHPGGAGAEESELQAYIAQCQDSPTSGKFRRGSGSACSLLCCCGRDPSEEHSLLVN
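Calcium fluorescence on an FDSS kinetic reader gave the read-out. Tet-induced TRPML1-DL cells were plated overnight, dye-loaded (Ca8 with quencher, 45-90 min, room temperature, dark), then read 110 s after compound addition, and again 110 s after 4uM final 54-4 (EC80).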
TRPML1 blocker: qHTS for Inhibitors of the Human Mucolipin Transient Receptor Potential 1 (TRPML1); TRPML1-inducible cells, Ca2+ dye fluorescence, FDSS; active compounds read low; inhibition of EC80 agonist-evoked calcium signal; activity change, negative = inhibition, % (concentration not given with the values); 390,000 compounds, 0.02% hits; AID 624415, 2012; in the data active means activity change below about -50%; inconclusive means about -30% to -50%; inactive means above about -30%;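 also: stimulus is agonist 54-4 at its EC80 concentration; % is scaled to controls: 0 for no effect and ±100 for the full control effect; the text of the record puts the active cut at -80%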
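TRPML1-DL cells, Tet-induced overnight (~16 h, 37 °C) at 1,500 cells/well, were loaded with Ca8 no-wash dye plus quencher for 45-90 min at room temperature. Compounds were pinned during FDSS kinetic reading; agonist 54-4 at EC80 (4 uM final) then added.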
Numbers without * were called inactive; ? = inconclusive; / = not tested or not shown; & = joins results of further samples; [ ] = remark or other dose.

Value order: PINK1 expr mod, Sfp inh, Menin-MLL FL inh, TRPV1 potentiator, ClpP mod, TRPML1 ag, TRPML1 blocker
O=C(Cn1c(=O)n(-c2ccccc2)c(=O)c2ccc(C(=O)NCc3ccc4c(c3)OCO4)cc21)Nc1ccc(Br)cc1F
    3.9%, /, /, /, ?, 0.4, 12
O=C(/C=C/c1ccccc1[N+](=O)[O-])Oc1ccccc1
    /, -6%, -3.2, 25, /, /, /
CC(=O)Nc1ccc(Nc2nnc(-c3ccc(C)c(S(N)(=O)=O)c3)c3ccccc23)cc1
    0.6%&0.6%, 9%, -2.4, -1, -3.9%&1.7%, -0.7&-0.2, -17&-4
Cc1cc(C(=O)OCC(=O)c2ccc3c(c2)NC(=O)CO3)c2ccccc2n1
    0.9%[38.3 µM], -14%, 6.3, 1, -9.3%, 0.7, 14
Cc1c(C(=O)NC(C)C)sc2ncn(CC(=O)N3CCC(C)CC3)c(=O)c12
    1.3%[38.3 µM], 17%, 5.3, 7, -1.2%, 0.4, -3
O=C(Nc1cccc(F)c1)/C(=C\c1ccco1)NC(=O)c1ccco1
    -0.2%, -10%, /, -16, 1.0%, 0.3, 13
CC(OC(=O)c1cccnc1)C(=O)Nc1ccc2c(c1)OCO2 (stereo not drawn)
    -2.5%, 0%, -2.1, -10, -3.2%, 0.6, 1
Cc1ccc(NS(=O)(=O)c2cc(C(=O)O)ccc2Cl)cc1
    1.8%, 8%, 1.5, 7, 0.0%, -0.3, -5
Cc1cccc(N2CCN(c3ccc(NC(=O)/C=C(/C(=O)O)c4ccccc4)cc3)CC2)c1
    1.2%, ?, 2.6, ?, -3.5%, 1.5, 26
COc1ccc(CCNC(=O)CCC(=O)N2CC(C)Oc3ccc(Cl)cc32)cc1OC (stereo not drawn)
    1.4%, 12%, 3.7, 14, 1.7%, 0.8, 17
COc1cc(S(=O)(=O)NCc2ccncc2)ccc1Br
    -0.2%, 21%, -4.7, -2, -16%, -0.5, -6
c1ccc(/N=C2\N=C(Nc3ccccn3)c3ccccc32)nc1
    2.3%, /, /, /, /, 1.2, -1
O=C(N/N=C/c1ccccc1)c1[nH]c2ccc(Br)cc2c1-c1ccccc1
    15%, -4%, 0.6, -20, 22µM*, -0.4, -5
COc1ccc(CCNC(=O)CN(C)S(=O)(=O)c2ccc3nc(C)sc3c2)cc1OC
    -0.8%, 8%, -1.6, 19, -3.9%, -1.0, 13
O=C(O)c1cccc(CSc2nnc(Cc3ccccc3)o2)c1
    -1.1%, 17%, 3.1, 5, 0.6%, 0.8, 1
CCCCNc1c(-c2ccc(OC)c(Sc3ccc(OC)cc3)c2)nc2ccccn12
    15%, /, /, -5, 4.3%, 0.2, 11
C=C(C)CSc1nc2ccccc2[nH]1
    -2.4%, 24%, -0.3, -19, -1.6%, 0.3, -15
COc1ccccc1OCCNC(=O)C1CC(=O)N(Cc2ccccc2)C1 (stereo not drawn)
    1.0%, /, /, -9, 0.3%, -0.3, 2
Cc1ccccc1[C@@H](NC(=O)OC(C)(C)C)C(=O)OC(C)(C)C
    2.4%, /, /, -21, -2.5%, 1.0, 7
Cc1ccnc(SCCn2c(N3CCC(C)CC3)nc3c2c(=O)[nH]c(=O)n3C)n1
    -0.1%, 13%, 3.9, 4, 0.6%, -0.1, -4
CSc1cccc(NC(=O)CN(C)S(=O)(=O)c2ccc(F)cc2)c1
    -1.8%, 12%, 2.3, 15, -2.3%, 1.1, 4
CC1C/C(=C/c2ccncc2)C(=O)/C(=C/c2ccncc2)C1 (stereo not drawn)
    -1.2%, ?, -2.4, 10, 0.6%, -0.4, 45
CCSc1nnc(NC(=O)NC(C)(C(F)(F)F)C(F)(F)F)s1
    20µM*, 23%, 2.4, -5, 1.8%, -0.1, 53
COc1ccccc1NS(=O)(=O)c1cc(NC(=O)c2sccc2C)ccc1N1CCCC1
    -1.3%, 2.8µM*, 2.2, 3, /, 2.1, 17
COc1ccc(CN2CCN(C(=O)c3cccs3)CC2)cc1Br
    3.3%, ?, 1.2, /, 2.5%, 4.9, -4
Cc1ccc(-n2c(=O)c3c(c4cc(C)ccc4n3C)n(CC(=O)NCc3ccccc3Cl)c2=O)cc1
    1.7%, /, /, /, -4.4%, -0.4, 3
CCOc1ccc(CCNC(=O)C2(c3ccccc3)CC2)cc1OCC
    0.2%, 10%, /, 17, -0.8%, 1.9, 4
CC(CN1CCCC(C(N)=O)C1)c1ccccc1 (stereo not drawn)
    16%[38.3 µM], 7%, -1.4, -2, -2.1%, 0.8, 1
CNC(=S)Nc1cc(S(=O)(=O)Nc2cc(Cl)ccc2Cl)ccc1N1CCCC1
    1.4%, -9%, 0.3, 4, -2.5%, /, /
CCOC(=O)COc1nc2ccc(Br)cc2c(-c2ccccc2)c1C(C)=O
    -2.5%, 8%, -6.2, -16, -0.8%, 1.3, -14
O=C(CCN1C(=O)C2CC=CCC2C1=O)NC1CCCCC1 (stereo not drawn)
    -0.2%, 8%, /, -1, 0.6%, -0.9, -5
COc1cc(NC(=O)CN2C(=O)NC(C)(c3ccccc3)C2=O)c(C)cc1[N+](=O)[O-] (stereo not drawn)
    8.0%, 3%, 1.3, 0, -1.8%, -0.6, 9
CCN(CC)S(=O)(=O)c1cccc(C(=O)N2CCCCC2)c1
    -1.9%, 27%, 0.0, -5, -13%, -0.1, 2
Cc1nn(CC(=O)Nc2ccccn2)c(=O)c2ccccc12
    -2.6%, 18%, 0.6, -2, -4.8%, -0.4, -11
O=C(CSc1nc2ccccc2n1CC(=O)Nc1ccc(F)cc1F)Nc1ccc(F)cc1
    9.5%, /, /, /, 3.8%, 0.2, -10
NCC12CC3CC(C1)CC(c1ccc(Cl)cc1)(C3)C2
    -1.9%, -18%, ?, 3, 0.3%, 2.8, 7
Nc1cc2c(cc1Br)-c1ccccc1C2=NO
    -1.2%, /, /, /, -0.3%, 2.3, 1
CC(=O)c1c(C)[nH]c(C(=O)OCC(=O)NCc2ccccc2)c1C
    2.1%, /, /, /, -1.0%, -0.7, -17
C=CCn1c(O)c(N=NC(=S)Nc2ccccc2C)c2cc(S(=O)(=O)N3CCOCC3)ccc21
    0.1%, 1%, 0.4, 6, /, 0.5, 49
Cc1ccc(OCCn2cc(C(=S)N3CCCC3)c3ccccc32)cc1C
    0.5%, 21%, 9.4, 1, -1.5%, -1.0, 7
CCc1ccc(NC(=O)Cn2nnc(C(=O)NCc3ccc(OC)cc3)c2N)cc1
    -0.9%, 4%, /, 0, -0.2%, -0.9, -9
O=c1cc(CO)oc(CN2CCC(Cc3ccccc3)CC2)c1O
    -1.4%, -15%, -1.9, -8, 0.3%, -0.8, 2
CC(NC(=O)c1nn(C)c2c1CS(=O)(=O)c1ccccc1-2)c1ccccc1 (stereo not drawn)
    0.3%, 10%, -5.6, 4, -2.5%, -0.1, -5
O=C(COC(=O)c1ccccc1NC(=O)c1ccco1)NC1CC1
    -0.7%, 18%, 0.7, 0, 1.3%, 4.1, -22
COC(=O)CNC(c1ccccc1)c1cc(Br)ccc1NC(=O)c1cc(OC)c(OC)c(OC)c1 (stereo not drawn)
    5.0%, /, /, /, ?, 2.0, 5
Cn1c(=O)[nH]c2nc[nH]c2c1=O
    -0.5%&0.4%, 6%, -1.0, -1, 0.2%, 0.1, 22
CCCn1nc2cc(C(=O)NCc3ccc(OC)cc3)ccc2c1OCC
    -0.4%, 2%, 2.8, 4, 3.6%, -0.2, 4
O=C(CCCc1ccccc1)NCCc1ccc(F)cc1
    1.6%, 14%, 0.5, -17, -0.5%, 0.1, 22
CC(C)(C)OC(=O)N1CCCC(C(=O)Nc2cccc(C(=O)N3CCCC3)c2)C1 (stereo not drawn)
    1.1%, /, /, /, -1.0%, -0.3, 3
Cc1ccc(S(=O)(=O)N2CCN(C(=O)COC(=O)C3CCC3)CC2)cc1
    0.5%, /, /, -3, /, 0.2, -13
COC(=O)c1ccccc1NC(=O)Nc1cnccn1
    /, 6%, -1.0, 5, -14%, -0.3, 11
Cc1ccc([N+](=O)[O-])c(OCCN2CCc3ccccc3C2)c1
    0.3%, -28%, -0.6, 2, -3.0%, 0.9, 20
Cc1cc(C)c(C(=O)COC(=O)CCNS(=O)(=O)c2c(Cl)cccc2Cl)cc1C
    1.0%, -5%, 3.7, -13, 1.8%, 1.4, 24
C/C(=N\NC(=O)CNC(=O)c1ccc(Br)cc1)c1ccco1
    7.4%, 13%, 2.2, 10, -0.8%, 0.5, -10
COc1cccc2cc(-c3nc(-c4cccs4)no3)c(=O)oc12
    0.8%, /, /, /, -0.2%, 0.7, -7
COc1ccc(C2Nc3ccccc3C(=O)N2c2ccc(C)cc2)cc1Cn1nnc2ccccc21 (stereo not drawn)
    -3.4%[38.3 µM], 14%, 0.7, 15, 32µM*, 1.2, -4
COC(=O)c1ccc(COC(=O)c2ccc(CS(=O)(=O)c3ccc(C)cc3)cc2)cc1
    16%, -4%, 2.7, 9, -2.3%, -0.3, -5
